Env fusion inh: blocks HIV Env-driven cell-cell fusion; HeLa-JRFL Env/CEM21 cell fusion, luciferase; inhibition, % at 12.3 µM; hit rate 1.1% among 360,000; AID 651610;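 active = mean replicate inhibition score of at least 50 and every replicate individually at or above 50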;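 note: 0% = plate neutral controls and 100% = maraviroc near 300 nM; one replicate is shown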
PABP FP inh: blocks human PABP binding to poly(A) RNA | fluorescence polarization | inhibition, % at 35 µM | hit rate 1% among 290,000;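 active = 50% or more with normal probe brightness, or confirmed in later tests; about a fifth of its hits are not listed in these tables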;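 note: calls also rest on retests at 20 µM and on dose response follow-up; controls were probe without protein and protein plus probe with vehicle; some compounds called inactive have numbers as strong as hits; many hits fall short of the cut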
CSC inhib: cancer stem cell inhibition. cancer stem cell-like cells viability, luminescence. inhibition, % at 7.5 µM. hit rate 1.1% among 300,000. AID 2717;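 active = mean at 75% or more and at least half the replicates too; tested in HMLE shEcad cells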;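 note: 0% = median of negative and 100% = median of positive control wells; the first replicate is given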
Yeast UUG start: alters start codon recognition fidelity in yeast | S. cerevisiae UUG-firefly luciferase reporter, luminescence/redox ratio | activity score, % at 18.7 µM | hit rate 0.13% among 350,000 | AID 602363;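 active = replicate mean at a twofold rise or more, about +100% in these data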;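 note: firefly luciferase made from a UUG start codon reports start codon fidelity; reporter light over untreated wells divided by growth signal over untreated wells; some hits fall short of that in this replicate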
Rce1 inh: blocks yeast Ras-converting enzyme; hit rate 0.27% among 290,000; yeast membranes, quenched prenylated peptide cleavage fluorescence; Q03530; calls only;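 active = fall in fluorescence gain of 50% or more versus controls, with final raw signal at or below 3038400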;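 note: plate controls were neutral control wells for no effect and wells lacking membranes for full effect; tested at 10 µM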
Target sequence (Q03530 whole entry, looked up): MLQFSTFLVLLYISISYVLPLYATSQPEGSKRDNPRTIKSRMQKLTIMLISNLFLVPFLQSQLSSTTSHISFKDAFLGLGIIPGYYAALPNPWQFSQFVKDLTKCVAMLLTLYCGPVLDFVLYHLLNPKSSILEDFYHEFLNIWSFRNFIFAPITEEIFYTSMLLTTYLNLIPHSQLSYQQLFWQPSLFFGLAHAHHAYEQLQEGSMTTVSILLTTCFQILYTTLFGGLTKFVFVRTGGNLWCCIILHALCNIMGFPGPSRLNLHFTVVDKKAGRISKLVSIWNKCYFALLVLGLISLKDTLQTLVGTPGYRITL
MT1-MMP act inh: MT1-MMP (human) activation inhibition | HT1080 RFP-PRO-GFP cells, GFP/RFP ratio fluorescence, overnight; percent of plate control window, DMSO zero | GFP/RFP ratio change, % at 20 µM | P50281 | hit rate 0.061% among 360,000 | AID 651647;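 active = GFP/RFP ratio change of at least 30% with cell ATP level not reduced by more than half and red fluorescence within 50% of control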; note: strong numbers were not always called active
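Material: RFP-PRO-GFP reporter HT1080 cells. Dosing: single-point 20 µM compound, 1% DMSO. Controls: DMSO and RFP-L50D-GFP cell wells. Timing: cells overnight before dosing, compound overnight, 37 °C, 5% CO2. Measure: GFP/RFP fluorescence ratio.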
eIF4H FP inh: inhibitors of RNA binding by human eIF4H; hit rate 0.94% among 290,000; eIF4H fluorescence polarization binding assay; AID 2012; inhibition, % at 35 µM;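 active = 50% or more with normal probe brightness, or confirmed in later tests; about a fifth of its hits are not listed in these tables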;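 note: calls also rest on retests at 20 µM and on dose response follow-up; 0% = protein and probe with vehicle and 100% = probe without protein; strong numbers were not always called active; many hits fall short of the cut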
eIF4H FP inh retest: recorded beside eIF4H FP inh, whose call it bears; inhibition, %; compound at 20 µM; confirmation average;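 mean of two retest wells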
PABP FP inh retest: recorded beside PABP FP inh, whose call it bears; inhibition, %; compound at 20 µM; confirmation repeats;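 mean of two retest wells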
MT1-MMP act inh RFP: second read-out of MT1-MMP act inh, no call of its own (marks repeat the call); RFP signal change, %; measured here: RFP expression control read;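 0 = vehicle wells; hits needed this value within 50% of zero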
* hit, by the source's call; i = inactive; nt = no result given; & = joins results of further samples.

SMILES | Env fusion inh | PABP FP inh | CSC inhib | Yeast UUG start | Rce1 inh | MT1-MMP act inh | MT1-MMP act inh RFP | eIF4H FP inh | others
CCN(CC)CCn1c(=O)n(-c2ccc(Cl)cc2)c(=O)c2c3c(sc21)CN(C)CC3 | 3 | 8 | 8 | nt | i | -9 | 2 | 12
CNc1nc(Cl)nc2ncn(C)c12 | 1 | nt | nt | -14 | nt | -2 | 1 | nt
Cc1cccc(NC(=O)CN2CCN(C(=O)c3ccc(-c4nc5ccccc5s4)o3)CC2)c1C | -37 | nt | nt | -22 | nt | 0 | -8 | nt
CCc1ccc(OCCn2cccn2)cc1 | -7 | 7 | -2 | nt | i | 2 | 5 | -5
CCc1ccccc1NC(=O)CSc1nc2c(c(-c3ccco3)c1C#N)CCCC2 | 12 | 1 | -12 | -14 | i | -1 | -4 | -4
Cc1cccc(N2CCN(C(=O)c3ccc(NC(=O)C4CCCO4)cc3)CC2C)c1 (configuration not stated) | -25 | -2 | nt | -22 | i | -1 | -2 | -8
OCCN1CCN(CCCc2c3c(cc4c2CCC4)CCC3)CC1 | nt | -2 | 95* | -5 | i | 1 | 0 | 8
O=C(C1COc2ccccc2O1)N1CCc2ccccc21 (configuration not stated) | nt | 16 | -9 | -17 | i | 5 | 8 | 79* | eIF4H FP inh retest=82*;PABP FP inh retest=25
CCn1c(Cn2nnc(-c3ccccc3)n2)nnc1SCC(=O)Nc1cccc(C(C)=O)c1 | nt | -1 | -7 | 0 | i | 0 | 2 | 3
Cn1c(Cn2c(=O)sc3ccccc32)nnc1SCC(=O)Nc1ccc(F)cc1 | -21 | -12 | -3 | -12 | i | 2 | 8 | -6

The list goes on, overlapping the part above by 3 compounds.
SMILES | Env fusion inh | PABP FP inh | CSC inhib | Yeast UUG start | Rce1 inh | MT1-MMP act inh | MT1-MMP act inh RFP | eIF4H FP inh | others
O=C(C1COc2ccccc2O1)N1CCc2ccccc21 (configuration not stated) | nt | 16 | -9 | -17 | i | 5 | 8 | 79* | eIF4H FP inh retest=82*;PABP FP inh retest=25
CCn1c(Cn2nnc(-c3ccccc3)n2)nnc1SCC(=O)Nc1cccc(C(C)=O)c1 | nt | -1 | -7 | 0 | i | 0 | 2 | 3
Cn1c(Cn2c(=O)sc3ccccc32)nnc1SCC(=O)Nc1ccc(F)cc1 | -21 | -12 | -3 | -12 | i | 2 | 8 | -6
O=C(O)c1ccc(N=C2NC(=O)C(CO)(CO)S2)cc1 | -9 | 0 | -7 | -12 | i | -1 | -1 | -4
Cc1nc(NS(=O)(=O)c2ccccc2)sc1C(=O)N/N=C/c1ccccc1 | -2 | 1 | -6 | -13 | i | -2 | 2 | -4
Cc1ccc(-c2cn3nc(C)c(C)nc3n2)cc1 | 26 | 13 | -2 | -36 | i | -12 | -3 | 2
O=C(COc1ccc(S(=O)(=O)N2CCCCC2)cc1)N1CCCC1 | 0 | 1 | 6 | -8 | i | 2 | 1 | 36
COc1cccc(C2CC(c3c(Cl)cccc3Cl)n3nc(N)nc3N2)c1 (configuration not stated) | -2 | -8 | -12 | -8 | i | -2 | 1 | -10
CCOC1=C2CN(S(=O)(=O)c3ccc(C)cc3)[C@H](c3cccc(Cl)c3)C[C@H]2[C@H]2C(=O)N(c3ccccc3)C(=O)[C@H]2C1 | -123 | nt | nt | -7 | nt | 0 | -3 | nt
O=C(COC(=O)CCc1ccccc1)Nc1cc(S(=O)(=O)N2CCOCC2)ccc1N1CCCC1 | 8 | 6 | -9 | nt | i | -1 | -2 | -3
Cc1nonc1NC(=O)CSc1ccc(-c2ccccc2)nn1 | -63 | 6 | 12 | -19 | i | 1 | -2 | 3
CCCCSC1=N/C(=C/c2ccsc2)C(=O)N1c1ccccc1 | 11 | 5 | 38 | -20 | i | -11 | -10 | 0
COc1ccc(CCNC(=O)Cn2c(=O)oc3ccccc32)cc1OC | nt | 0 | -1 | -8 | i | 6 | 7 | 2
Cc1ccc(C(=O)Nc2cccnc2)cc1S(=O)(=O)N1CCCC1 | 5 | 13 | -15 | -6 | i | 1 | 2 | 0
CCOC(=O)C(NC=O)(NC(C)(C)C)C(=O)OCC | nt | 18 | -3 | 1 | i | 5 | -1 | 4
Nc1ncnc2sc3c(c12)CCNC3 | -1 | 7 | -11 | -24 | i | 3 | 0 | -14
Cc1cc(C)n(/C(=C/N(C)C)C(=O)c2ccccc2)n1 | -18 | -3 | -17 | nt | i | 0 | 1 | -15
Fc1ccccc1-c1nc(NCCCN2CCOCC2)c2ccccc2n1 | 4 | 24 | 2 | nt | i | -3 | -4 | 0
COc1ccc2c(c1)C1=NN(/C(C)=C/C(C)=O)C(c3cccc(F)c3)C1CC2 (configuration not stated) | 1 | -12 | -10 | -28 | i | -7 | 12 | 8
Cc1ccccc1NS(=O)(=O)c1cccc2nonc12 | -15 | 2 | 10 | -4 | i | -10 | 0 | -5
O=C(CCl)Nc1ccc(S(=O)(=O)NC2=NCCCCC2)cc1 | 31 | nt | 42 | -14 | nt | 11 | 5 | nt
CCN1CCN(Cc2cc(=O)oc3ccc(Cl)cc23)CC1 | 3 | 6 | -6 | -28 | i | -4 | -1 | 8
CC(C)(O)[C@@H]1[C@@H]2C[C@@]3(CC[C@]4(C)C(CCC5[C@@]6(C)CC[C@H](O)C(C)(C)C6CC[C@]54C)[C@@H]13)C(=O)O2 (some centres not stated) | nt | nt | 0 | -29 | i | 2 | 2 | nt
COc1ccc(NC(=O)CCCNC(=O)Cn2cnc3sc4c(c3c2=O)CCCC4)c(OC)c1 | -3 | -7 | 0 | 5 | i | 0 | 0 | -11
NCCCC[C@@H]1NC(=O)[C@H](CCC(=O)O)NC(=O)c2cc([N+](=O)[O-])cc(I)c2OCC[C@@H](C(N)=O)NC1=O | nt | -4 | -2 | 49 | nt | -2 | 2 | 8
CCN(CC(=O)Nc1c(F)cccc1F)C(=O)c1ccc(N2CCCCC2)c([N+](=O)[O-])c1 | nt | 13 | -10 | -5 | i | 5 | -13 | -6
COc1cc(NC(=O)c2ccc3c(c2)C(=O)N(CCC(C)C)C3=O)c(C(=O)O)cc1OC | 9 | 18 | -3 | -13 | i | 3 | 0 | -3
COc1cc(NC(=O)CSc2nc3[nH]c(=O)cc(O)c3s2)cc(OC)c1OC | nt | nt | -6 | -18 | nt | -4 | 3 | nt
CCCCOc1ccc(C(=O)N/C(=C/C=C/c2ccccc2)C(=O)NCCCO)cc1 | -1 | -6 | nt | nt | i | 1 | 4 | -10
COc1ncc(C2=CC(=O)CC(C)(C)C2)cn1 | 7 | nt | -5 | -16 | nt | 2 | 2 | nt
CC(C)(C)c1nnc(NC(=O)c2cccnc2)s1 | 13 | -5 | nt | -15 | i | nt | nt | 0
O=C(NC1CCCCC1)N1CCN(c2ccc(Cl)cc2)CC1 | -207 | 5 | 6 | -5 | i | -1 | -10 | 2
Cc1nn(C(C)C)c(C)c1[C@@H]1C[C@H]2CN(Cc3cccc(Cl)c3)C(=O)[C@]23CCCN13 | 8 | -5 | 12 | 5 | i | -2 | -6 | 5
Cc1cccc(NC(=O)N2CCc3ccccc3C2)c1C | -22 | -7 | -6 | 0 | i | 2 | 0 | -9
COc1cccc(N2CCCn3c2nc2c3c(=O)n(CCN3CCOCC3)c(=O)n2C)c1 | nt | -4 | nt | nt | i | nt | nt | -14
Cc1ccc2c(c1)N(CC(=O)N1CCCC1)C(=O)c1cccnc1O2 | 9 | nt | -18 | -9 | i | -2 | 1 | nt
Cc1cc2oc(=O)cc(CN3CCOCC3)c2c(C)c1Cl | 6 | 1 | -9 | -9 | i | -7 | -2 | -10
CCOC(=O)c1ccccc1C(=O)N1CCOCCOCCOCC1 | 3 | 21 | -6 | nt | i | 0 | 4 | -8
Cc1cc(/C=C(\C#N)C(N)=O)c(C)n1-c1ccc(N2CCOCC2)c([N+](=O)[O-])c1 | 40 | -3 | -7 | -7 | i | 2 | -14 | 23
Cc1ccc(-c2cn(-c3ccccc3)c3[n+]2CCCS3)cc1 | 43 | 6&6 | 20&5 | -22 | i | -2&-11 | -30&-26 | 2&5
CCOC(=O)C1CCN(c2ncnc3c2cnn3-c2ccc(OC)cc2)CC1 | 21 | -9 | nt | -1 | nt | 2 | -4 | 2
CN1CCN(C(=O)CCN2C(=O)/C(=C\c3ccc(Cl)cc3)SC2=S)CC1 | nt | -6 | 8 | 1 | i | 20 | 14 | -7
CCC(=O)NC1=C(NC(C)c2ccccc2)C(=O)c2ccccc2C1=O (configuration not stated) | nt | 4 | 29 | 9 | i | 1 | -4 | -11

The list goes on (six carried over from the part before).
SMILES | Env fusion inh | PABP FP inh | CSC inhib | Yeast UUG start | Rce1 inh | MT1-MMP act inh | MT1-MMP act inh RFP | eIF4H FP inh | others
CCOC(=O)c1ccccc1C(=O)N1CCOCCOCCOCC1 | 3 | 21 | -6 | nt | i | 0 | 4 | -8
Cc1cc(/C=C(\C#N)C(N)=O)c(C)n1-c1ccc(N2CCOCC2)c([N+](=O)[O-])c1 | 40 | -3 | -7 | -7 | i | 2 | -14 | 23
Cc1ccc(-c2cn(-c3ccccc3)c3[n+]2CCCS3)cc1 | 43 | 6&6 | 20&5 | -22 | i | -2&-11 | -30&-26 | 2&5
CCOC(=O)C1CCN(c2ncnc3c2cnn3-c2ccc(OC)cc2)CC1 | 21 | -9 | nt | -1 | nt | 2 | -4 | 2
CN1CCN(C(=O)CCN2C(=O)/C(=C\c3ccc(Cl)cc3)SC2=S)CC1 | nt | -6 | 8 | 1 | i | 20 | 14 | -7
CCC(=O)NC1=C(NC(C)c2ccccc2)C(=O)c2ccccc2C1=O (configuration not stated) | nt | 4 | 29 | 9 | i | 1 | -4 | -11
CS(=O)(=O)N(CC(=O)N1CCCC1)Cc1ccc(F)cc1 | 9 | -11 | -2 | 5 | i | 1 | 2 | -7
Cn1nnnc1SCC(=O)Nc1cc(C(F)(F)F)ccc1N1CCOCC1 | 9 | 0 | -2 | -4 | i | -3 | 2 | 4
O=C(O)/C=C/C(=O)Nc1ccc2c(c1)NC(=O)CO2 | 1 | -11 | 1 | nt | i | -2 | 3 | 25
Cc1ccc(NC(=O)CCC(=O)c2cccs2)c(O)c1 | -13 | -5 | 5 | nt | i | 6 | 2 | -5
CCCCC(=O)N(C)c1c(CC)nc2c(OCC(=O)c3ccc(F)cc3)cccn12 | -13 | nt | nt | -10 | nt | -3 | 0 | nt
CC(=O)Nc1ccc(S(=O)(=O)N2CCN(CCCOc3ccccc3Cl)CC2)cc1 | -27 | 7 | 6 | nt | i | 1 | -6 | 24
COc1ccc(/C=N/NC(N)=S)cc1OC(=O)c1ccccc1 | -361 | 1 | -11 | -30 | i | 0 | 0 | 8

Screening results (PubChem)

Some of the compounds tested, so the mix of outcomes need not match the whole.
